TRPML1 blocker = human mucolipin-1 channel inhibition | TRPML1-inducible cells, Ca2+ dye fluorescence, FDSS; active compounds read low; inhibition of EC80 agonist-evoked calcium signal | activity change, negative = inhibition, % (test concentration not listed) | Q9GZU1 | AID 624415 | actives 0.02% (n = 390,000); in the data active means activity change below about -50%; inconclusive means about -30% to -50%; inactive means above about -30%;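 also: stimulus is agonist 54-4 at its EC80 concentration; % is scaled to controls: 0 for no effect and ±100 for the full control effect; compound concentration not given in the record; the text of the record puts the active cut at -80%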
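Tet-induced TRPML1-DL cells loaded with Ca8 no-wash calcium dye were read kinetically on FDSS. Compound addition was followed by EC80 agonist 54-4 (4 uM final); inhibition was read over 110 s.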
Six1-Eya2 inh = blocks human Six1 binding to Eya2; Q15475+O00167; AlphaScreen GST-Six1/His-Eya2 binding, biochemical; active compounds read low; control for the full effect not named in the record; activity change, % (concentration not given with the values); actives 0.56% (n = 360,000); AID 651725; in the data active = activity change below about -65%; inconclusive = about -30% to -65%; inactive = above about -30%; also: % is scaled to controls: 0 for no effect and ±100 for the full control effect
Target sequence (O00167 whole entry, looked up): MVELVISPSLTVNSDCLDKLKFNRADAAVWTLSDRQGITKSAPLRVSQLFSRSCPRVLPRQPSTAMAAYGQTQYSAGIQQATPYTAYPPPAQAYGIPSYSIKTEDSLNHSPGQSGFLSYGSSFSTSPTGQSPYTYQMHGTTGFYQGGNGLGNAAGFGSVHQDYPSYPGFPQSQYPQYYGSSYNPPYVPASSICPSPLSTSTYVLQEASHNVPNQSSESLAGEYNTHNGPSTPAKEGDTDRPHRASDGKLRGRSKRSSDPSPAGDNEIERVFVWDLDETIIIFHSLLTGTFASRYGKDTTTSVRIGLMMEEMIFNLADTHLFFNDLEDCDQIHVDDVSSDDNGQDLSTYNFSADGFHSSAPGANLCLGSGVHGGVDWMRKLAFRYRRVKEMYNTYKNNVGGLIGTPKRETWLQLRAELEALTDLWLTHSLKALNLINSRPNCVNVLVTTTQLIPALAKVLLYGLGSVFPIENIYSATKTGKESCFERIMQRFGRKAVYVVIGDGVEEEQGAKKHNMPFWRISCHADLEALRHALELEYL
Target sequence (Q15475 whole entry, looked up): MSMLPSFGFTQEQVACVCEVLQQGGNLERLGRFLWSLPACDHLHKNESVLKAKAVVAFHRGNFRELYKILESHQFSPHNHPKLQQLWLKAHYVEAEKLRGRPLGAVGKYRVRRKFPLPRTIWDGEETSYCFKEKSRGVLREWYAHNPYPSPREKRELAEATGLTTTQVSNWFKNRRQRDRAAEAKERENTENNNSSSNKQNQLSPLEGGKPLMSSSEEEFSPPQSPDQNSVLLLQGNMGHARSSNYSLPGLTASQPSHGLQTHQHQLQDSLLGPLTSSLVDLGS
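Six1/Eya2 binding was read as AlphaScreen signal after compounds were pinned into GST-Six1 plus His-tagged Eya2 (5X stock 250/500 nM) in pH 8.0 Tris/NaCl/TCEP buffer, beads added, then incubated 1 h, 37 C, dark.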
PINK1 modulator = PINK1 expression modulation | Potency, µM (top dose mostly 76.6 µM), without a hit: at the top dose activation (PINK1 increase), most hits filed as activators | AID 624263 | PINK1 immunofluorescence, high-content cytometry, 24 h | actives 0.2% (n = 410,000); active = well fitted activation curve with a large enough effect; inconclusive = small, poorly fitted or top-dose-only effect; inactive = flat fitted curve, though single readings scatter; cell line not stated here;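 also: potency is read from the fitted curve at half-maximal effect; % of control where 0% means no effect; nearly all actives have a fitted effect of over 65% in size; a mitochondrial uncoupler was the plate control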
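Decision-based qHTS: stable cells, 24 h exposure to five compound concentrations, CCCP as control. Fixed cells stained for PINK1 plus nuclear, mitochondrial and cell markers, cytometer read.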
D2 agonist = agonists of human D2 dopamine receptor (beta-arrestin). P14416. DiscoveRx PathHunter D2 beta-arrestin, luminescence, 90 min; 100% = 57 uM dopamine signal. activation, % (concentration not given with the values). actives 0.084% (n = 360,000); in the data active = activation above about 40%; inconclusive = about 15% to 40%; inactive = below about 15%; also: compound concentration not given in the record; the text of the record calls up to 30% inactive
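Agonist mode: compounds alone added to overnight-plated D2 PathHunter cells for 90 min at 37 C, with 57 uM final dopamine (EC100) defining full response. Beta-arrestin recruitment detected by chemiluminescent reagent, read after 1 h at ambient temperature.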
D2 potentiator = human D2 receptor positive allosteric modulation; P14416; DiscoveRx D2 beta-arrestin cells, luminescence, 90 min; 100% = 57 uM dopamine signal; potentiation, % (no concentration beside the values); actives 0.23% (n = 360,000); active = potentiation of 50% or more; inconclusive = 30% to 50%; inactive = 30% or less;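 also: compound concentration not given in the record; tested on top of an EC20 dose of dopamine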
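PathHunter beta-arrestin assay in DiscoveRx D2 cells. Compounds were added with an EC20 of dopamine (50 nM final) for 90 min at 37 deg C. Luminescence was read 1 h after detection reagent, with 57 uM dopamine as the EC100 control.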
TRPML1 ag = human mucolipin-1 channel agonism; Q9GZU1; TRPML1-expressing cells, Ca2+ dye fluorescence, FDSS; host cell line not named in the record; reference of the full effect not given here; activation, % (concentration not given with the values); actives 0.12% (n = 410,000); AID 624414; in the data active = activation above about 50%; inconclusive = about 30% to 50%; inactive = below about 30%; also: 0% is about no effect; the text of the record puts the active cut at 80%
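TRPML1-DL cells, Tet-induced overnight (~16 h, 37 degrees C), loaded 45-90 min at room temperature with Ca8 no-wash calcium dye plus quencher. FDSS fluorescence: 10 s baseline, compound pin-transfer, 110 s agonist read, then EC80 54-4 (4uM final) and 110 s antagonist read.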
* = called active by the depositor; & = joins results of further samples; [ ] = another dose, or the depositor's remark.

How did CCN(CC(=O)NCc1cccs1)S(=O)(=O)c1cccc(Br)c1 do in these assays?
TRPML1 blocker: 3; Six1-Eya2 inh: -2; PINK1 modulator: 1.5%; D2 agonist: 5.6; D2 potentiator: -1; TRPML1 ag: -0.4

How did O=c1c2cc3c(nc2ncn1Cc1ccccc1F)CCCC3 do in these assays?
TRPML1 blocker: 22; PINK1 modulator: -0.6%; TRPML1 ag: -0.8

How did COC(=O)c1sccc1NC(=O)CSc1cccc(Cl)c1Cl do in these assays?
TRPML1 blocker: 0; Six1-Eya2 inh: 33; PINK1 modulator: 9.0%; D2 agonist: -0.3; D2 potentiator: 3; TRPML1 ag: 1.7

Results for Cc1cc(C)nc(N2CCC(C(=O)Nc3ccc4c(c3)CCC4)CC2)n1 ?
TRPML1 blocker: -1; Six1-Eya2 inh: 4; PINK1 modulator: 5.7%[38.3 µM]; D2 agonist: -2.9; D2 potentiator: 1; TRPML1 ag: -0.6

What do the screens show for `CCOC(=O)C1CCN(C(=O)Cn2nc(CC)n3c(cc4occc43)c2=O)CC1`?
TRPML1 blocker: -10; PINK1 modulator: -0.4%; TRPML1 ag: -0.7

What do the screens show for `Cc1ccc(NC(=O)CN(C)S(=O)(=O)c2cccc3cccnc23)cc1F`?
TRPML1 blocker: -1&1; Six1-Eya2 inh: 0; PINK1 modulator: 0.0%&1.7%; D2 agonist: 1.4; D2 potentiator: -23; TRPML1 ag: -0.1&0.0

Results for Brc1ccccc1-c1ccccc1 ?
TRPML1 blocker: 0; Six1-Eya2 inh: 7; PINK1 modulator: 0.4%; D2 agonist: 3.8; D2 potentiator: -4; TRPML1 ag: 0.3

What do the screens show for `C[C@@H]1CN([C@H](C)CO)C(=O)CCCn2nncc2CO[C@H]1CN(C)C(=O)CCC(F)(F)F`?
Six1-Eya2 inh: 0; PINK1 modulator: 1.7%; D2 agonist: -2.2

How did CCOc1cccc(/C=N/NC(=O)CC2C(=O)NN=C2C)c1O (configuration not stated) do in these assays?
TRPML1 blocker: -18; Six1-Eya2 inh: inconclusive; PINK1 modulator: 0.1%; D2 agonist: 0.2; D2 potentiator: -8; TRPML1 ag: -0.3

Results for Cc1cccn2c(=O)nc(SCC(=O)NCc3ccco3)nc12 ?
TRPML1 blocker: 21; Six1-Eya2 inh: -17; PINK1 modulator: 0.1%; D2 agonist: -2.3; D2 potentiator: -29; TRPML1 ag: 0.9

How did COCCN(C(=O)c1snc(C(N)=O)c1N)C(C(=O)NC1CCCCC1)c1ccc(N(C)C)cc1 (configuration not stated) do in these assays?
TRPML1 blocker: -15; Six1-Eya2 inh: -3; PINK1 modulator: -0.1%; D2 agonist: -2.1; D2 potentiator: -10; TRPML1 ag: 0.2

What do the screens show for `COc1ccc(-n2nc(C(=O)NCC3CCCO3)c3ccccc3c2=O)cc1` (configuration not stated)?
TRPML1 blocker: -7; Six1-Eya2 inh: 2; PINK1 modulator: 0.6%; D2 agonist: -6.7; D2 potentiator: -15; TRPML1 ag: -0.6

Results for CSc1nc2ccc(NC(=O)c3ccco3)cc2s1 ?
TRPML1 blocker: -4; Six1-Eya2 inh: -21; PINK1 modulator: 2.3%; D2 agonist: 1.6; D2 potentiator: -4; TRPML1 ag: -0.8

What do the screens show for `O=C(NC1CC1)c1ccc(-n2cccc2)cc1`?
TRPML1 blocker: 18; Six1-Eya2 inh: -4; PINK1 modulator: -0.5%; D2 agonist: -0.3; D2 potentiator: 6; TRPML1 ag: 1.6

How did CC(C)S(=O)(=O)NC(=O)C1(C)CCN1C(=O)Cc1ccccc1 (configuration not stated) do in these assays?
TRPML1 blocker: -20; Six1-Eya2 inh: 7; PINK1 modulator: 0.8%; D2 agonist: -3.8; D2 potentiator: -4; TRPML1 ag: -0.2

What do the screens show for `O=c1cc(-c2ccccc2)nc(SCc2ccccc2F)[nH]1`?
TRPML1 blocker: -4; Six1-Eya2 inh: 4; PINK1 modulator: 0.7%; D2 agonist: 2.8; D2 potentiator: -6; TRPML1 ag: 0.2

How did CCN(CC)c1ccc2cc(S(=O)(=O)c3ccc(Cl)cc3)c(=O)oc2c1 do in these assays?
TRPML1 blocker: -4; Six1-Eya2 inh: 83; PINK1 modulator: -0.3%; D2 agonist: -3.0; D2 potentiator: -1; TRPML1 ag: 17

What do the screens show for `Cc1ccccc1NC(=O)N1CCCC1C(=O)NCc1ccccc1` (configuration not stated)?
TRPML1 blocker: 12; Six1-Eya2 inh: 0; PINK1 modulator: 2.8%; D2 agonist: -5.2; D2 potentiator: -4; TRPML1 ag: 0.5

What do the screens show for `CC(C)CCNC(=O)c1cccc(Cl)c1`?
TRPML1 blocker: 5; Six1-Eya2 inh: 5; PINK1 modulator: 1.7%; D2 agonist: -1.1; D2 potentiator: -17; TRPML1 ag: 0.9

How did O=C(Nc1cccc(C(F)(F)F)c1)C1CCN(S(=O)(=O)c2cnc[nH]2)CC1 do in these assays?
TRPML1 blocker: 22; Six1-Eya2 inh: 1; PINK1 modulator: -1.6%; D2 agonist: -0.1; D2 potentiator: -28; TRPML1 ag: -0.3

Filtered by structure: the compounds so far with a thiophene ring, fused or not
How did CCN(CC(=O)NCc1cccs1)S(=O)(=O)c1cccc(Br)c1 do in these assays?
TRPML1 blocker: 3; Six1-Eya2 inh: -2; PINK1 modulator: 1.5%; D2 agonist: 5.6; D2 potentiator: -1; TRPML1 ag: -0.4

How did COC(=O)c1sccc1NC(=O)CSc1cccc(Cl)c1Cl do in these assays?
TRPML1 blocker: 0; Six1-Eya2 inh: 33; PINK1 modulator: 9.0%; D2 agonist: -0.3; D2 potentiator: 3; TRPML1 ag: 1.7

(list continues)
What do the screens show for `CCOC(=O)C1CCN(C(=O)COC(=O)c2ccc(=O)n(Cc3ccccc3)n2)CC1`?
TRPML1 blocker: -6; Six1-Eya2 inh: 6; PINK1 modulator: 7.4%; D2 agonist: -2.1; D2 potentiator: -3; TRPML1 ag: -0.3

How did Cc1nn(C)c(C)c1CN(Cc1nc(-c2cc(F)ccc2F)oc1C)C1CC1 do in these assays?
TRPML1 blocker: -9; Six1-Eya2 inh: 1; PINK1 modulator: 2.8%; D2 agonist: -15; D2 potentiator: -12; TRPML1 ag: 3.1

Results for Cc1ccc(N(C(=O)CNC(=O)c2ccco2)C(C(=O)NC2CCCCC2)c2cccnc2)cc1 (configuration not stated) ?
TRPML1 blocker: -2; Six1-Eya2 inh: 5; PINK1 modulator: -2.0%; D2 agonist: -2.0; D2 potentiator: -2; TRPML1 ag: -0.4

Results for O=C(CSc1nc2ccccc2c(=O)n1Cc1ccc(C(=O)NC2CC2)cc1)NCc1ccco1 ?
TRPML1 blocker: -19; Six1-Eya2 inh: -2; D2 agonist: 0.5; D2 potentiator: -8; TRPML1 ag: -0.2

Results for O=C(c1cccc([N+](=O)[O-])c1)N1c2ncnn2C2(CCCCC2)[C@@H]2CCCC[C@@H]21 ?
TRPML1 blocker: 5; PINK1 modulator: 1.5%; TRPML1 ag: -0.2

Results for CC(OC(=O)CNC(=O)c1ccc(Cl)c([N+](=O)[O-])c1)C(=O)NC1CCCCC1C (configuration not stated) ?
TRPML1 blocker: -10; Six1-Eya2 inh: -3; PINK1 modulator: -0.1%; D2 agonist: 3.3; D2 potentiator: -16; TRPML1 ag: 0.4

What do the screens show for `c1ccc(-c2nccc(-c3ccco3)n2)nc1`?
TRPML1 blocker: -11; Six1-Eya2 inh: inconclusive; PINK1 modulator: 0.7%; D2 agonist: -1.9; D2 potentiator: 0; TRPML1 ag: 0.2

How did CCN(C(=O)c1cc(Cl)ccc1OC)C1CCCCC1 do in these assays?
TRPML1 blocker: 1; Six1-Eya2 inh: 0; PINK1 modulator: -3.1%; D2 agonist: -3.6; D2 potentiator: -3; TRPML1 ag: -0.2

How did O=c1c2nnn(-c3ccc(Br)cc3)c2ncn1Cc1ccccn1 do in these assays?
TRPML1 blocker: 13; Six1-Eya2 inh: -16; PINK1 modulator: 7.5%; D2 agonist: -2.6; D2 potentiator: -3; TRPML1 ag: -0.9

What do the screens show for `Cc1cc(C)cc(NC(=O)CSc2nc(-c3cccc(Cl)c3)nc3c2Cc2c(CO)cnc(C)c2O3)c1`?
TRPML1 blocker: -3; PINK1 modulator: 3.5%; TRPML1 ag: 0.2

How did CCCCC(=O)Nc1cccc(-c2nc3ccccc3s2)c1 do in these assays?
TRPML1 blocker: -7; PINK1 modulator: 0.4%; TRPML1 ag: -0.2

Results for CC(C)(C)n1cnc2cc(NC(=O)c3ccco3)ccc21 ?
TRPML1 blocker: -15; Six1-Eya2 inh: -5; PINK1 modulator: 0.2%; D2 agonist: -1.6; D2 potentiator: -4; TRPML1 ag: 0.4

How did CCCCN(C(=O)CN1C(=O)C2CCCCC2C1=O)c1c(N)n(CCC)c(=O)[nH]c1=O (configuration not stated) do in these assays?
TRPML1 blocker: -4; Six1-Eya2 inh: 2; PINK1 modulator: -1.0%; D2 agonist: -6.6; D2 potentiator: -12; TRPML1 ag: -0.3

What do the screens show for `CCOc1ccc(CCNC(=O)C2CCN(C(=O)c3cc4sccc4n3CC)CC2)cc1OCC`?
TRPML1 blocker: 14; PINK1 modulator: 2.5%; TRPML1 ag: -0.4

How did O=C(NCC(c1ccco1)N1CCCCC1)c1cc2c(s1)CCCC2 (configuration not stated) do in these assays?
TRPML1 blocker: 15; Six1-Eya2 inh: -1; PINK1 modulator: 11%; D2 agonist: -0.2; D2 potentiator: -3; TRPML1 ag: 0.0

Results for O=C(NCC1CCCCC1)c1cc([N+](=O)[O-])ccc1Cl ?
TRPML1 blocker: 6; Six1-Eya2 inh: 3; PINK1 modulator: 1.4%; D2 agonist: 8.2; D2 potentiator: -1; TRPML1 ag: -0.3

What do the screens show for `CN(Cc1ccccc1)C(=O)c1ccc(NC(=O)Cc2ccc(NC(=O)C3CCN(C(=O)c4ccccc4)CC3)cc2)cc1`?
TRPML1 blocker: 7; Six1-Eya2 inh: 5; PINK1 modulator: 5.1%; D2 agonist: 0.0; D2 potentiator: -1; TRPML1 ag: 1.7

How did COc1ccccc1NC1CCCCC1NS(=O)(=O)c1ccccc1 (configuration not stated) do in these assays?
TRPML1 blocker: -12; Six1-Eya2 inh: -21; PINK1 modulator: 0.4%; D2 agonist: 1.1; D2 potentiator: 1; TRPML1 ag: 1.4

Results for N#Cc1c(NC(=O)c2cccnc2)sc2c1CCC2 ?
TRPML1 blocker: 0; Six1-Eya2 inh: -2; PINK1 modulator: 6.3%; D2 agonist: -2.2; D2 potentiator: 1; TRPML1 ag: -0.2

What do the screens show for `CCOc1ccc(C(=O)NCCc2ccc3c(c2)OCCO3)cc1`?
TRPML1 blocker: 3; Six1-Eya2 inh: 8; PINK1 modulator: -0.7%; D2 agonist: 5.9; D2 potentiator: -3; TRPML1 ag: 0.0

How did CCn1c(SCC(=O)NNC(=S)Nc2ccc(C)cc2)nnc1-c1ccc(Cl)cc1 do in these assays?
TRPML1 blocker: -13; Six1-Eya2 inh: 1; PINK1 modulator: -1.6%; D2 agonist: -12; D2 potentiator: -47; TRPML1 ag: 0.4

Bioassay records (PubChem)
